# Compound activity (PubChem)
# total CFTR: compounds raising F508del-CFTR protein level – cell-based, HeLa F508del-CFTR, immunofluorescence, viability, primary screen (AID 1224863) | HeLa F508del-CFTR, immunofluorescence total CFTR, 24 h; by the record results were divided by relative cell number; some inactives read as strong as hits | 10,000 compounds, 0.1% hits | calls, or highest fold increase where a dose series was run; in the data nearly all actives have a first-pass fold increase above 1.5; a few of its hits are not listed in these tables;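 further: total CFTR protein by anti-CFTR immunofluorescence in fixed cells; first pass at 25 µM or 10 µg/mL by library and series up to twice that; 1 = untreated cells; first-pass hits also needed half or more of the cells alive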
# total CFTR fold 25 µM: further read-out of total CFTR, marked with its call; fold increase; measured here: primary screen single dose 25 uM; library dosed in µM
# total CFTR fold 10 ug/mL: also measured in total CFTR; calls as there; fold increase; measured here: primary screen 10 ug/mL
# total CFTR viability 25 µM: second read-out of total CFTR, no call of its own (marks repeat the call); viability, %; measured here: primary viability 25 uM; library dosed in µM;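 0% = killed and 100% = untreated cells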
# total CFTR viability 10 ug/mL: second read-out of total CFTR, no call of its own (marks repeat the call); viability, %; measured here: primary viability 10 ug/mL;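 0% = killed and 100% = untreated cells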
# An asterisk follows results filed as active; i = inactive; x = no result given; & = joins results of further samples.
SMILES,total CFTR,total CFTR fold 10 ug/mL,total CFTR viability 10 ug/mL,others
CCCCn1c(N)c(N(CCC(C)C)C(=O)COC(=O)c2ccc([N+](=O)[O-])s2)c(=O)[nH]c1=O,i,0.86,77.0,
COc1cc2c(cc1OC)N(CN1CCN(c3ccc([N+](=O)[O-])cc3)CC1)C(=O)C2=O,i,0.91,100.0,
Cn1ncc2c(NCC3(N4CCCCC4)CCCCC3)ncnc21,i,1.05,96.0,
CC(Nc1ccc([N+](=O)[O-])cn1)C1CCCO1 (stereo unspecified),i,0.97,92.0,
CN(C)CCN(Cc1ccc(Cl)cc1)c1ccccn1,i,x,x,total CFTR fold 25 µM=1.16;total CFTR viability 25 µM=92.0
COc1ccc(CNCC2CCCO2)cc1 (stereo unspecified),i,1.19,107.0,
COc1ccccc1-c1nn(Cc2ccccc2)cc1C1NC(=O)c2ccccc2N1 (stereo unspecified),i,0.98,115.0,
COc1cc2c3cc1Oc1cc(ccc1O)C[C@@H]1c4c(cc(OC)c(O)c4Oc4ccc(cc4)C[C@@H]3N(C)CC2)CC[N+]1(C)C,i,x,x,total CFTR fold 25 µM=1.04&1.16;total CFTR viability 25 µM=100.0&97.0
NCc1cc2c(s1)CCCC2,i,1.02,101.0,
O=C(Cc1cc(Cl)cc2c1OCOC2)N1CCOCC1,i,1.15,100.0,
CC(C)(C)c1nc(Sc2ncnc3sccc23)n[nH]1,i,0.96,94.0,
CCCn1c(=O)c2ccccc2n2c(SCCNCCO)nnc12,i,1.01,108.0,
CC(SC(F)(F)F)C(=O)Nc1nc(C(C)(C)C)cs1 (stereo unspecified),i,0.95,77.0,
C=C(C)C1CC=C(C)CC1 (stereo unspecified),i,x,x,total CFTR fold 25 µM=1.01;total CFTR viability 25 µM=81.0
CCc1ccc2c(CSc3cc(C)c4ccccc4n3)cc(=O)oc2c1,i,1.09,113.0,
CC1/C=C/C=C/CC/C=C/C=C/C=C/C=C/C(O[C@@H]2O[C@H](C)[C@@H](O)[C@H](N)[C@@H]2O)CC(O)C(C(=O)O)C(O)CC(=O)CC(O)C(O)CCC(O)CC(O)CC(O)CC(=O)OC(C)C(C)C1O (stereo partly specified),i,x,x,total CFTR fold 25 µM=1.13;total CFTR viability 25 µM=97.0
O=C(c1cc2cc(Cl)ccc2o1)c1ccc(Cl)s1,i,1.23,89.0,
CS(=O)(=O)c1nc2ccccc2n1CC#N,i,0.99,93.0,
S=c1n(CN(CC2CCCO2)CC2CCCO2)nc2sc3ccccc3n12 (stereo unspecified),i,1.06,98.0,
CC1=CC(=O)c2ccccc2C1=O,i,x,x,total CFTR fold 25 µM=0.81;total CFTR viability 25 µM=3.0
NC[C@@H]1O[C@H](O[C@@H]2[C@@H](CO)OC(O[C@@H]3[C@@H](O)[C@H](N)C[C@H](N)[C@H]3O[C@H]3O[C@H](CN)[C@@H](O)[C@H](O)[C@H]3N)[C@@H]2O)[C@H](N)[C@@H](O)[C@@H]1O (stereo partly specified),i,x,x,total CFTR fold 25 µM=1;total CFTR viability 25 µM=77.0
CC(C(=O)C12CC3CC(CC(C3)C1)C2)n1cnc2c1c(=O)n(C)c(=O)n2C (stereo unspecified),i,0.97,92.0,
CN(CCCNc1nc2ccccn2c(=O)c1[N+](=O)[O-])CC(F)(F)F,i,0.94,98.0,
O=C(CCCSc1nnc(-c2ccccc2)c(-c2ccccc2)n1)c1ccccc1,i,0.97,105.0,
O=C(c1c[nH]c2ccccc12)N1CCc2[nH]c3ccccc3c2C1,i,0.94,78.0,
# Remaining list, next part.
SMILES,total CFTR,total CFTR fold 10 ug/mL,total CFTR viability 10 ug/mL,others
O=C1NC2(CCCCC2)C(=O)N1CN1CCCC1c1ccccc1 (stereo unspecified),i,1.01,95.0,
CC(=O)[C@@]12O[C@](C)(c3ccccc3)O[C@@H]1CC1C3CCC4=CC(=O)CC[C@]4(C)C3CC[C@@]12C (stereo partly specified),i,x,x,total CFTR fold 25 µM=1;total CFTR viability 25 µM=84.0
Cc1cc(N2CCN(CCS(=O)(=O)c3ccc(Cl)cc3)CC2)nc(C(C)C)n1,i,0.85,83.0,
O=C(c1cc(Cl)c2nc3cc(Cl)ccc3n2c1)c1ccccc1O,i,0.91,102.0,
Cc1nn(-c2ccccc2)c(C)c1C(=O)OC1CCOC1=O (stereo unspecified),i,1.02,99.0,
N#Cc1cc([N+](=O)[O-])ccc1NCc1ccco1,i,1.09,104.0,
O=C(O)C1CCCN1Cc1ccccn1 (stereo unspecified),i,1.12,104.0,
CN(C1CCS(=O)(=O)C1)S(=O)(=O)/C=C/c1ccc(Cl)cc1 (stereo unspecified),i,0.93,91.0,
Cc1cc(C(=O)COC(=O)c2c3c(nc4ccccc24)/C(=C\c2ccc4c(c2)OCO4)CC3)c(C)n1C1CC1,i,1.13,113.0,
CS(=O)(=O)N1CCN(c2ncnc3sc4c(c23)CCC4)CC1,i,0.88,88.0,
CN(CCN(C)C(=O)c1csc(Br)c1)C(=O)c1csc(Br)c1,i,1.04,86.0,
Cc1cc(C(=O)Cn2c(=O)oc3ccc([N+](=O)[O-])cc32)c(C)n1C,i,1.19,97.0,
CC1CCCCN1C(=O)CN1CCN(Cn2ncc(Cl)c(Cl)c2=O)CC1 (stereo unspecified),i,1.13,74.0,
Cc1sc2nc(CN3CCOCC3)nc(-n3nnc(-c4ccsc4)n3)c2c1C,i,1.07,109.0,
CC(c1nc(-c2cccc(C(F)(F)F)c2)no1)N1CCN(S(=O)(=O)N2CCCCC2)CC1 (stereo unspecified),i,0.97,87.0,
Cc1[nH]c(SCc2nnc(-c3ccccc3Br)o2)nc1Cc1ccccc1,i,0.98,97.0,
COc1ccc(N2CCN(Cn3nc(C(F)(F)F)n(C)c3=S)CC2)cc1,i,1.12,95.0,
CNCCc1ccccn1,i,x,x,total CFTR fold 25 µM=0.95;total CFTR viability 25 µM=103.0
Cc1nc(CN2CCN(CN3C(=O)NC4(CCCCCC4)C3=O)CC2)cs1,i,1.04,96.0,
CC(C)Cn1nnnc1Sc1nnnn1-c1ccccc1,2.23,1.68,91.0,
Cc1ncsc1C(=O)N1CCN(S(=O)(=O)N(C)C2CCCCC2)CC1,i,1.04,101.0,
CCOC(=O)c1cn[nH]c1S(=O)(=O)NC1CCCCC1,i,0.95,96.0,
NCCCC[C@H](N[C@@H](CCc1ccccc1)C(=O)O)C(=O)N1CCC[C@H]1C(=O)O,i,x,x,total CFTR fold 25 µM=1.03&0.99;total CFTR viability 25 µM=92.0&95.0
Cc1nnc(CN2CCC(c3nc4ccccc4s3)CC2)o1,i,0.83,96.0,
CSc1ncccc1C(=O)NC1CC2CC1C1CCCC21 (stereo unspecified),i,1.14,103.0,

# Sorted by length of the SMILES (low to high): some entries from above
SMILES,total CFTR,total CFTR fold 10 ug/mL,total CFTR viability 10 ug/mL,others
O=C(O)C1CCCN1Cc1ccccn1 (stereo unspecified),i,1.12,104.0,
CN(CCN(C)C(=O)c1csc(Br)c1)C(=O)c1csc(Br)c1,i,1.04,86.0,
Cc1cc(C(=O)COC(=O)c2c3c(nc4ccccc24)/C(=C\c2ccc4c(c2)OCO4)CC3)c(C)n1C1CC1,i,1.13,113.0,

# Carrying on:
SMILES,total CFTR,total CFTR fold 10 ug/mL,total CFTR viability 10 ug/mL,others
COc1ccc(Cl)cc1CN(C)CN1C(=O)C(=O)N(C(C)C)C1=O,i,0.91,87.0,
Brc1ccc(-c2nnc(CN3CCN(c4ncccn4)CC3)o2)o1,i,0.97,104.0,
CC(C)(C)OC(=O)N1CCC(C(=O)N2CCn3c2nc2ccccc23)CC1,i,1.01,101.0,
CONC(=O)c1cccnc1SCc1c(C)noc1C,i,0.98,92.0,
CCN(CC)C(CNC(=O)c1ccco1)c1ccsc1 (stereo unspecified),i,1,97.0,
c1ccc(Cc2noc(CN3CCc4ccccc4C3)n2)cc1,i,0.85,84.0,
CCn1cnn(CN(C)Cc2ccc3cc(OC)ccc3c2)c1=S,i,1.03,105.0,
O=C1/C(=C/c2cc(Cl)c3c(c2)OCCO3)Cc2ccccc21,i,1.1,90.0,
Cc1ccc(C)c(OCCCOn2nnc3ccc(S(C)(=O)=O)cc32)c1,i,0.91,81.0,
CS(=O)(=O)N1CCCN(CN2C(=O)c3cccc4cccc2c34)CC1,i,0.96,92.0,
CC(NCc1ccc(Cl)c(Cl)c1)c1ccc(-n2ccnc2)cc1 (stereo unspecified),i,0.86,84.0,
N#CC1(C(=O)O)CCCCC1,i,0.95,99.0,
CCc1ccc(CN(C)c2ccc3nnnn3n2)cc1,i,0.96,102.0,
O=C(NCCCn1ccnc1)c1ccc([N+](=O)[O-])s1,i,0.78,71.0,
Cn1ccnc1COc1ccc(Cn2nnc(-c3ccc(Br)cc3)n2)cc1,i,0.89,90.0,
COc1cc(C)c(S(=O)(=O)NC(C)C2CCCO2)cc1OC (stereo unspecified),i,0.99,94.0,
O=C(CCCN1CCC(O)(c2ccc(Cl)cc2)CC1)c1ccc(F)cc1,i,x,x,total CFTR fold 25 µM=1.08&1.03&1.15;total CFTR viability 25 µM=87.0&88.0&106.0
CN1CCN(C(=O)CCCN)CC1,i,1.11,96.0,
NC(=O)c1ncn(C2O[C@H](CO)[C@@H](O)[C@H]2O)c1N (stereo partly specified),i,x,x,total CFTR fold 25 µM=1.19;total CFTR viability 25 µM=95.0
Nc1nc(CN2CCCCCC2)nc2sc3c(c12)CCCCC3,i,1.05,99.0,
COc1ccc(OC)c(S(=O)(=O)N2CCN(S(=O)(=O)c3ccc(Cl)s3)CC2)c1,i,1.3,105.0,
Cn1cccc1C(=O)OCC(=O)N1N=C2/C(=C\c3cccs3)CCCC2C1c1cccs1 (stereo unspecified),i,0.92,98.0,
CSCCSc1nnc(-c2ccccc2)n1-c1ccc(Cl)cc1,i,0.92,81.0,
CC1(C)O[C@@H]2CC3C4CCC5=CC(=O)C=C[C@]5(C)C4[C@@H](O)C[C@]3(C)[C@]2(C(=O)CO)O1 (stereo partly specified),i,x,x,total CFTR fold 25 µM=1.15;total CFTR viability 25 µM=79.0
CS(C)=O,i,x,x,total CFTR fold 25 µM=1.12;total CFTR viability 25 µM=79.0
# (more compounds)
SMILES,total CFTR,total CFTR fold 10 ug/mL,total CFTR viability 10 ug/mL,others
CCN(C(=O)COC(=O)c1ccc([N+](=O)[O-])o1)C1CCS(=O)(=O)C1 (stereo unspecified),i,1.02,95.0,
CCOCC(C)N (stereo unspecified),i,0.87,89.0,
Cc1ccc(C(C)NC(=O)c2cc(-c3ccco3)[nH]n2)o1 (stereo unspecified),i,1.03,88.0,
CC(NCc1ccc(F)cc1)c1ccc(S(C)(=O)=O)cc1 (stereo unspecified),i,1.19,88.0,
COC(=O)C1(NC(=O)C2CCCN(S(=O)(=O)c3ccc(C)s3)C2)CCCCC1 (stereo unspecified),i,0.92,91.0,
Cc1ccsc1CN(C)C(=O)CN1C(=O)C(=O)N(CC(C)C)C1=O,i,0.98,88.0,
CC1CCN(S(=O)(=O)N2CCN(c3c([N+](=O)[O-])ncn3C)CC2)CC1,i,0.95,91.0,
Cc1noc(C)c1S(=O)(=O)N1CCCN(Cn2c(=S)n(C(C)C)c3ccccc32)CC1,i,0.94,82.0,
CC(NCC(O)COc1cc(Cl)ccc1Cl)c1cccc(Cl)c1 (stereo unspecified),i,0.6,4.0,
c1cc(-c2nnc(Sc3ncnc4sc5c(c34)CCCC5)o2)ccn1,i,1.1,117.0,
CC(OC(=O)C12CC3CC(CC(Cl)(C3)C1)C2)C(=O)Nc1ccc2c(c1)OCCO2 (stereo unspecified),i,1,98.0,
CNC(=O)NC(=O)CCN(C)C1CCCCCC1,i,1,102.0,
O=C1NC2(CCCCc3ccccc32)C(=O)N1CN1CCOCC1 (stereo unspecified),i,0.91,87.0,
CCOc1ccc(OCCSC2=NC3CCCCC3N2)cc1 (stereo unspecified),i,0.96,92.0,
CCC1=C[C@@H]2CN(C1)Cc1c([nH]c3ccccc13)[C@@](C(=O)OC)(c1cc3c(cc1OC)N(C)[C@H]1[C@@](O)(C(=O)OC)[C@H](OC(C)=O)[C@]4(CC)C=CCN5CC[C@]31[C@@H]54)C2,i,x,x,total CFTR fold 25 µM=0.84;total CFTR viability 25 µM=104.0
C=CCn1c(=O)c2ccccc2n2c(SCc3ccc(Br)cc3)nnc12,i,0.93,83.0,
COCCOCCCNc1ccc([N+](=O)[O-])cc1S(N)(=O)=O,i,1.05,99.0,

# Among those listed so far, four contain a CF3 group:
SMILES,total CFTR,total CFTR fold 10 ug/mL,total CFTR viability 10 ug/mL,others
CC(SC(F)(F)F)C(=O)Nc1nc(C(C)(C)C)cs1 (stereo unspecified),i,0.95,77.0,
CN(CCCNc1nc2ccccn2c(=O)c1[N+](=O)[O-])CC(F)(F)F,i,0.94,98.0,
CC(c1nc(-c2cccc(C(F)(F)F)c2)no1)N1CCN(S(=O)(=O)N2CCCCC2)CC1 (stereo unspecified),i,0.97,87.0,
COc1ccc(N2CCN(Cn3nc(C(F)(F)F)n(C)c3=S)CC2)cc1,i,1.12,95.0,

# Random excerpt: 4 records from the list.
SMILES,total CFTR,total CFTR fold 10 ug/mL,total CFTR viability 10 ug/mL,others
CNC(=O)NC(=O)CCN(C)C1CCCCCC1,i,1,102.0,
CCOc1ccc(OCCSC2=NC3CCCCC3N2)cc1 (stereo unspecified),i,0.96,92.0,
CCC1=C[C@@H]2CN(C1)Cc1c([nH]c3ccccc13)[C@@](C(=O)OC)(c1cc3c(cc1OC)N(C)[C@H]1[C@@](O)(C(=O)OC)[C@H](OC(C)=O)[C@]4(CC)C=CCN5CC[C@]31[C@@H]54)C2,i,x,x,total CFTR fold 25 µM=0.84;total CFTR viability 25 µM=104.0
c1cc(-c2nnc(Sc3ncnc4sc5c(c34)CCCC5)o2)ccn1,i,1.1,117.0,

# Not all compounds are listed; rates above refer to the full screens.
